TRPML1 inh: human mucolipin-1 channel inhibition; TRPML1-inducible cells, Ca2+ dye fluorescence, FDSS; hits give low values; inhibition of EC80 agonist-evoked calcium signal; activity change, negative = inhibition, % (concentration not given with the values); 0.02% of 390,000 active; AID 624415; in the data active means activity change below about -50%; inconclusive means about -30% to -50%; inactive means above about -30%;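 note: stimulus is agonist 54-4 at its EC80 concentration; % is set by controls: 0 for no effect and ±100 for the full control effect; compound concentration not given in the record; the text of the record puts the active cut at -80%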
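TRPML1-DL cells, Tet-induced overnight (~16 h, 37 °C) at 1,500 cells/well, were loaded with Ca8 no-wash dye plus quencher for 45-90 min at room temperature. Compounds were pinned during FDSS kinetic reading; agonist 54-4 at EC80 (4 uM final) then added.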
TRPV1 potentiator: enhances activation of the human vanilloid receptor TRPV1 | AID 540277 | TRPV1-expressing cells, Fluo-8 calcium influx, capsaicin EC20 potentiation; host cell line not named in the record; control for the full effect not named in the record | 0.02% of 320,000 active | potentiation, % at 8.33 µM; active means potentiation above 80%; inconclusive means 30% to 80%; inactive means below 30%; note: 0% is about no effect
Target sequence (Q8NER1 whole entry, looked up): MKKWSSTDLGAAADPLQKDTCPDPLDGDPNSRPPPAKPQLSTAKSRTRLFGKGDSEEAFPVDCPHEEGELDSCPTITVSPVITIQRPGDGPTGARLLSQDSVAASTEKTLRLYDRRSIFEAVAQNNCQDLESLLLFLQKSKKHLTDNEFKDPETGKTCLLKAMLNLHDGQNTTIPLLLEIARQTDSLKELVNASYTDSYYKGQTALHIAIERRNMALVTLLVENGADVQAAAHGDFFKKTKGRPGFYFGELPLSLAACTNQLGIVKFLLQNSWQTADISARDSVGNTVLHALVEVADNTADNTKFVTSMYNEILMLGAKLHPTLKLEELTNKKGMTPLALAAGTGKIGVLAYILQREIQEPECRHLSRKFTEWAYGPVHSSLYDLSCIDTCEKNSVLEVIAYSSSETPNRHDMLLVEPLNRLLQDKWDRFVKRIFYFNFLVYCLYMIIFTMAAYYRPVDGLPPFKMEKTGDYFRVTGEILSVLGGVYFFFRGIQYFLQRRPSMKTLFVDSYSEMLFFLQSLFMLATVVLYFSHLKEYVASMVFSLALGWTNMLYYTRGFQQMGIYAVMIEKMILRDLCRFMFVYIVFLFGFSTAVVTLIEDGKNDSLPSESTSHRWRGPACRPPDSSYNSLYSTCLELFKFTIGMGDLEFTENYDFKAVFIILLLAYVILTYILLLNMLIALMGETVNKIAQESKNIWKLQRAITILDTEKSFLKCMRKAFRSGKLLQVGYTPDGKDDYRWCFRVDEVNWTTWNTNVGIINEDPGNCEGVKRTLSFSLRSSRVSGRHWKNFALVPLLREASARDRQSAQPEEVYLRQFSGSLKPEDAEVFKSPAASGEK
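TRPV1-expressing cells were cultured overnight at 35.5C and loaded with Fluo-8 calcium dye for 40 to 90 min at room temperature. After a 10 s baseline, compound was added and calcium influx was read kinetically for 3 min (ex 480/em 520 nm).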
Six1-Eya2 blk: Six1/Eya2 interaction inhibition; AlphaScreen GST-Six1/His-Eya2 binding, biochemical; hits give low values; control for the full effect not named in the record; activity change, % (no concentration beside the values); 0.56% of 360,000 active; AID 651725; in the data active = activity change below about -65%; inconclusive = about -30% to -65%; inactive = above about -30%; note: % is set by controls: 0 for no effect and ±100 for the full control effect; compound concentration not given in the record
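Six1/Eya2 binding was read as AlphaScreen signal after compounds were pinned into GST-Six1 plus His-tagged Eya2 (5X stock 250/500 nM) in pH 8.0 Tris/NaCl/TCEP buffer, beads added, then incubated 1 h, 37 C, dark.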
D2 PAM: human D2 receptor positive allosteric modulation. P14416. DiscoveRx D2 beta-arrestin cells, luminescence, 90 min; 100% = 57 uM dopamine signal. potentiation, % (concentration not given with the values). 0.23% of 360,000 active. AID 624464; active = potentiation of 50% or more; inconclusive = 30% to 50%; inactive = 30% or less;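 note: compound concentration not given in the record; tested on top of an EC20 dose of dopamine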
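PathHunter beta-arrestin assay in DiscoveRx D2 cells. Compounds were added with an EC20 of dopamine (50 nM final) for 90 min at 37 deg C. Luminescence was read 1 h after detection reagent, with 57 uM dopamine as the EC100 control.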
TRPML1 ag: agonists of human TRPML1 channel; 0.12% of 410,000 active; activation, % (no concentration beside the values); Q9GZU1; TRPML1-expressing cells, Ca2+ dye fluorescence, FDSS; host cell line not named in the record; reference of the full effect not given here; in the data active = activation above about 50%; inconclusive = about 30% to 50%; inactive = below about 30%; note: 0% is about no effect; the text of the record puts the active cut at 80%
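Cells: TRPML1-DL, 1X Tet inducer, ~16 h at 37 degrees C/5% CO2. Dye: ABD Ca8 no-wash + quencher, 45-90 min RT. Read: 10 s baseline, compound add, 110 s agonist phase; 54-4 EC80 (4uM final), 110 s antagonist phase.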
CtBP-E1A blk: inhibitors of CtBP/E1A interaction. AID 651724. activity change, % (no concentration beside the values). 0.49% of 340,000 active. AlphaScreen GST-E1A/His-CtBP binding, 1536-well; hits give low values; control for the full effect not named in the record; in the data active means activity change below about -65%; inconclusive means about -30% to -65%; inactive means above about -30%; note: % is set by controls: 0 for no effect and ±100 for the full control effect; compound concentration not given in the record
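Steps: dispense buffer (Tris pH 8.0, NaCl 300 mM, TCEP 1 mM, BSA, Tween 20); add 5X protein mix (GST-E1A, His-CtBP, 125 nM each); pin 23 nL compound; 2 h at 37 °C, dark; add 5X beads (50 ug/mL); 1 h; read.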
* = called active by the depositor; ? = inconclusive; / = no result given; & = joins results of further samples.

compound	TRPML1 inh	TRPV1 potentiator	Six1-Eya2 blk	D2 PAM	TRPML1 ag	CtBP-E1A blk
CC1=CCC2C(=O)N(c3ccccc3OC(=O)c3ccccc3F)C(=O)C2C1 (stereo not drawn)	-1.0	0.0	-6.3	1.8	-1.2	-5.7
CCOC(=O)CNC(=O)CSc1nnnn1-c1ccc(C)c(C)c1	-2.3	1.0	10.0	-8.1	2.3	2.3
Cc1nccn1C[C@@H]1CCc2c(c3ccccc3n2C)C1=O	18.6	2.5	-1.2	-16.3	-0.4	-1.1
NCCCCCC(=O)Nc1ccncc1	-13.3	15.7	3.6	-4.7	-0.7	-6.8
Cc1ccc(OC(=O)c2ccc(C)c(C)c2)cn1	-4.6	-9.0	1.3	10.1	0.3	2.2
O=C(/C=C/c1ccc(Cl)cc1)NC1CCS(=O)(=O)C1 (stereo not drawn)	-13.9	-4.5	1.3	-9.3	0.2	9.6
CCC1=NN(C(=O)COc2ccccc2C)C(O)(c2ccncc2)C1 (stereo not drawn)	-3.3	-5.2	9.4	-2.3	2.9	5.6
Cc1ccc(NC(=O)Nc2ccc(F)cc2F)c(OC(F)F)c1	-5.9	0.6	9.1	-5.3	1.2	/
CCOc1ccc2oc(C(=O)OCC(=O)N3C(C)CCCC3C)c(C)c2c1 (stereo not drawn)	1.6	-12.5	0.0	0.4	0.4	1.0
CC(C)CC(NS(=O)(=O)c1ccc2c(c1)oc(=O)n2C)C(=O)NCc1cccnc1 (stereo not drawn)	-1.1	2.1	1.3	-4.4	-0.8	0.0
Nn1cc(-c2ccccc2)nc1SCC(=O)N1CCN(S(=O)(=O)c2ccc3ccccc3c2)CC1	4.1	1.5	4.6	-1.6	0.1	-6.5
CC(C)NC(=O)c1ccc(COCC(F)(F)F)cc1	-8.6	-8.7	23.1	-22.8	0.1	35.1

Limited to TRPV1 potentiator, CtBP-E1A blk and D2 PAM, for some of the entries so far:
canonical_smiles | TRPV1 potentiator | CtBP-E1A blk | D2 PAM
Cc1ccc(NC(=O)Nc2ccc(F)cc2F)c(OC(F)F)c1 | 0.6 | / | -5.3
CCOc1ccc2oc(C(=O)OCC(=O)N3C(C)CCCC3C)c(C)c2c1 (stereo not drawn) | -12.5 | 1.0 | 0.4

(listing goes on)
compound	TRPML1 inh	TRPV1 potentiator	Six1-Eya2 blk	D2 PAM	TRPML1 ag	CtBP-E1A blk
Cc1[nH][nH]c(=O)c1[C@@H](c1ccccc1[N+](=O)[O-])C(C#N)C#N	-4.7	/	-5.1	-4.9	0.0	-10.4
CCCc1c(NC(=O)Nc2ccc(Cl)cc2Cl)cnn1-c1ccccc1	-23.4	15.9	5.5	0.1	0.6	1.0
COc1ccc2nc(NC(C)=O)sc2c1	-8.7	-10.1	-0.2	-14.5	-0.7	2.7
CS(=O)(=O)Nc1cccc(C2=NN(S(C)(=O)=O)C(c3ccc4c(c3)OCO4)C2)c1 (stereo not drawn)	18.8	10.6	7.4	4.1	0.2	2.3
Cc1ccc(C(=O)N2CCCC(Nc3ccc(F)cc3)C2)cc1C (stereo not drawn)	-10.5	-6.1	-6.2	-7.9	1.5	-5.3
Cc1cccc2sc(NC(=O)CCNS(=O)(=O)c3cccs3)nc12	-5.0	19.4	-12.1	-12.5	-0.3	-5.4
CC1CCCCC1NC(=O)NC(=O)COC(=O)c1ccc(OC(F)F)cc1 (stereo not drawn)	14.9	-0.7	4.9	-5.0	0.4	2.6
COc1ccc(OCC(O)Cn2c(N3CCCCC3)nc3c2c(=O)[nH]c(=O)n3C)cc1 (stereo not drawn)	3.6	1.9	-1.5	-0.9	0.3	/
C[C@@]12C(=O)N(Cc3ccc(Cl)cc3)CC(=O)N1[C@H]1c3ccccc3OC[C@@H]1[C@@H]2c1ccccc1	-1.8	-15.0	-11.6	-12.2	0.2	-12.1
COC(=O)c1ccc2[nH]ccc2c1	-4.5	-6.9	-0.1	-22.6	-1.1	2.2
COc1ccccc1N1CCN(C2CC(=O)N(c3ccc(Cl)cc3)C2=O)CC1 (stereo not drawn)	-16.0	-9.7	6.1	-1.1	-0.4	-0.4
Nc1ccn([C@@H]2O[C@H](C(=O)N3CCN(Cc4ccccn4)CC3)[C@@H](O)[C@H]2O)c(=O)n1	/	/	8.4	/	-0.1	9.1

compound	TRPML1 inh	TRPV1 potentiator	Six1-Eya2 blk	D2 PAM	TRPML1 ag	CtBP-E1A blk
CC1(C(=O)Nc2cccc(C#N)c2)CCN1C(=O)C/C=C/c1ccccc1 (stereo not drawn)	/	/	-3.8	-6.4	-0.4	3.4
O=C(Cn1c(=O)oc2ccccc21)NC(=O)NCc1ccccc1	17.3	12.4	0.0	-17.0	0.3	10.7
CN(CC1CCCN(CCc2cccc(C(F)(F)F)c2)C1)C(=O)c1ccco1 (stereo not drawn)	10.2	15.7	-0.8	-20.3	0.7	-11.2
CCOC(=O)C(C)c1nc2ccccc2[nH]c1=O (stereo not drawn)	-1.5	-3.0	4.5	-14.6	4.6	28.3
CN1CCC(=C2c3ccccc3C(O)c3ccccc32)CC1 (stereo not drawn)	-1.3	-3.8	-2.2	-52.0	-0.2	/
CN(CCCNC(=O)C1CCN(S(=O)(=O)c2cccc3nsnc23)CC1)Cc1ccccc1	21.8	/	-1.0	-25.0	0.4	0.9
O=C(COc1ccc(Cl)cc1Cl)NN=C1CCCCC1	0.5	1.9	-1.3	2.2	-0.4	4.1
COc1cc(OC)cc(-c2noc(-c3csc([C@@H]4O[C@H](CO)[C@H](O)[C@H](O)[C@H]4O)n3)n2)c1	13.0	/	-18.3	-10.5	-0.5	-7.6
Cc1cccc(N2C(=O)C3CCCN3C2=S)c1 (stereo not drawn)	5.2	-4.5	-14.7	-8.8	3.0	-21.4
N#Cc1nnn(-c2ccc(Cl)cc2)c1N	24.6	8.2&-6.2	2.1	-2.9	0.1	10.6
CS(=O)(=O)N1CCN(C2CCN(Cc3ccccc3)CC2)CC1	10.3	-2.6	3.7	8.1	0.1	0.4
CC(C)OC(=O)CCC1(C(=O)O)CCC(=O)NC1 (stereo not drawn)	4.2	-3.6	2.5	-6.3	0.4	4.6

Some values from the list:
Value for CCOC(=O)C(C)c1nc2ccccc2[nH]c1=O (stereo not drawn) in TRPML1 ag: 4.6
Value for CN(CCCNC(=O)C1CCN(S(=O)(=O)c2cccc3nsnc23)CC1)Cc1ccccc1 in Six1-Eya2 blk: -1.0

More structures:
compound	TRPML1 inh	TRPV1 potentiator	Six1-Eya2 blk	D2 PAM	TRPML1 ag	CtBP-E1A blk
COc1ccc(-n2nnnc2SC(C)C(N)=O)cc1 (stereo not drawn)	9.6	1.5	7.9	0.5	0.5	9.7
CC1CCC(NC(=O)C2CC(=O)N(c3ccc4c(c3)OCCO4)C2)CC1 (stereo not drawn)	24.4	-11.7	2.1	-5.9	0.8	14.2
N#CCCN(Cc1cccnc1)S(=O)(=O)c1ccc2ccccc2c1	-5.7	-4.1	5.1	-16.7	0.9	7.2
COc1ccc(CNC(=O)Cn2ncn3c(cc4ccccc43)c2=O)cc1	16.5	4.7	10.7	-3.5	0.0	9.5
CCOC(=O)C1CCCN(c2ncnc3c2cnn3-c2cccc(C)c2)C1 (stereo not drawn)	30.5	-41.9	2.9	2.6	3.4	4.2
CCN(CC(=O)Nc1ccccc1C(F)(F)F)C(=O)C1CCC1	4.4	-3.5	7.5	6.4	0.6	5.7
CCc1ccc(CCC(=O)Nc2ccc(S(N)(=O)=O)cc2)o1	5.8	-16.9	-0.8	4.7	0.1	-3.1
O=C(O)c1cccc(N2C(=O)c3ccc4c5c(ccc(c35)C2=O)C(=O)N(c2cccc(C(=O)O)c2)C4=O)c1	-15.5	7.3	-18.0	16.5	-0.3	-6.3
COc1ccc(N(CC(O)Cn2cnc3ccccc32)S(=O)(=O)c2ccc(C)cc2)cc1 (stereo not drawn)	5.1	-3.4	-11.6	-27.5	2.2	-9.8
c1ccc2c3n(nc2c1)CCCO3	-16.5	4.4	-0.9	1.4	-0.1	3.7
Cn1cc(Br)c(C(=O)NN2C(=O)C3C(C2=O)C2C=CC3C23CC3)n1 (stereo not drawn)	-4.0	-2.1	-1.3	0.6	0.5	7.5
Fc1ccc(Nc2nc(N3CCOCC3)nc(N3CCOCC3)n2)cc1Cl	-0.1	-41.9	4.3	1.8	0.5	2.8

compound	TRPML1 inh	TRPV1 potentiator	Six1-Eya2 blk	D2 PAM	TRPML1 ag	CtBP-E1A blk
COc1ccccc1NC(=O)Nc1nc(C(N)CC(C)C)cs1 (stereo not drawn)	/	/	-29.4	-10.1	0.0	-14.8
COc1ccccc1NC(=S)N1CCN(c2ccccn2)CC1	-18.4	0.4	0.5	-9.0	-0.1	-2.4
COc1cc(NC(=O)C2=C(C)OCCS2)c(Cl)cc1C(=O)NCCN(C)C	-1.2	-0.9	1.5	-15.9	0.2	-17.3
CN(C)S(=O)(=O)Oc1ccccc1C(=O)Nc1cccc(C(F)(F)F)c1	23.3	3.6	-4.2	-4.8	0.6	-3.8
O=C(O)CCc1nn2c3ccccc3n(CC(=O)c3ccccc3)c2nc1=O	-17.0	-0.1	1.2	-4.8	1.0	6.2
COc1ccc(CN2CCN(CCCCOc3ccc(Cl)cc3)CC2)c(OC)c1OC	19.3	15.2	-9.6	-18.0	-0.8	-16.5
C/C(CCc1ccc2c(c1)OCO2)=N\NC(=O)c1ccccc1	4.6	-3.3	9.3	-2.9	-0.4	2.8
Cc1ccc(NC(=O)C(=O)NCCOc2ccc(Cl)cc2)c(C)c1	-1.5	3.0	15.6	0.5	1.8	0.5
CCOc1ccc(NC(=O)Nc2ccc3nccnc3c2)cc1	1.8	-4.0	?	-12.6	0.1	-21.9
Cc1cccc(C(=O)N2CCCN(C(=O)c3cccc(C)c3)CC2)c1	-5.7	-8.0	-1.1	-8.5	-0.1	7.7
Nc1cccc(-c2nc3cc(S(=O)(=O)c4ccc5oc(-c6cccc(N)c6)nc5c4)ccc3o2)c1	8.4	24.6	-3.1	9.8	0.2	8.7
COC(=O)c1cccc(NC(=O)CN2C(=O)C3CCCCC3C2=O)c1 (stereo not drawn)	-13.0	?	3.4	1.0	-0.1	-1.9
Cc1ccc(C2C(C(N)=S)=C(N)OC3=C2C(=O)CC(C)(C)C3)cc1 (stereo not drawn)	-10.7	1.7	-0.1	-20.7	-0.4	-2.3
O=C(O)C1CCN(C(=O)CSc2nnc3ccccn23)CC1	-7.0	/	6.3	-0.5	3.6	0.8

Compound activity from PubChem BioAssay.
